# High-throughput results (PubChem)
# PINK1 modulator: A Quantitative High throughput Screen to Identify Chemical Modulators of PINK1 Expression; PINK1 immunofluorescence, high-content cytometry, 24 h; Potency, µM (highest dose often 76.6 µM), for inactives: at the top dose activation (PINK1 increase), actives largely listed as activators; hit rate 0.2% among 410,000; AID 624263, 2012; active = well fitted activation curve with a large enough effect; inconclusive = small, poorly fitted or top-dose-only effect; inactive = flat fitted curve, though single readings scatter; cell line not stated here;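 note: potency is the fitted concentration of half-maximal effect; % of control where 0% means no effect; nearly all actives have a fitted effect of over 65% in size; a mitochondrial uncoupler was the plate control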
#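 PINK1 protein level read as immunofluorescence by microplate cytometer in a fixed, stained stable cell line after 24 h exposure to five compound concentrations, with CCCP as control.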
# D2 agonist: Beta-Arrestin HTS for Positive Allosteric Modulators of the Human D2 Dopamine Receptor: Agonists; D(2) dopamine receptor (Homo sapiens), P14416; DiscoveRx PathHunter D2 beta-arrestin, luminescence, 90 min; 100% = 57 uM dopamine signal; activation, % (no concentration beside the values); hit rate 0.084% among 360,000; in the data active = activation above about 40%; inconclusive = about 15% to 40%; inactive = below about 15%; note: compound concentration not given in the record; the text of the record calls up to 30% inactive
# Target sequence (P14416 whole entry, looked up): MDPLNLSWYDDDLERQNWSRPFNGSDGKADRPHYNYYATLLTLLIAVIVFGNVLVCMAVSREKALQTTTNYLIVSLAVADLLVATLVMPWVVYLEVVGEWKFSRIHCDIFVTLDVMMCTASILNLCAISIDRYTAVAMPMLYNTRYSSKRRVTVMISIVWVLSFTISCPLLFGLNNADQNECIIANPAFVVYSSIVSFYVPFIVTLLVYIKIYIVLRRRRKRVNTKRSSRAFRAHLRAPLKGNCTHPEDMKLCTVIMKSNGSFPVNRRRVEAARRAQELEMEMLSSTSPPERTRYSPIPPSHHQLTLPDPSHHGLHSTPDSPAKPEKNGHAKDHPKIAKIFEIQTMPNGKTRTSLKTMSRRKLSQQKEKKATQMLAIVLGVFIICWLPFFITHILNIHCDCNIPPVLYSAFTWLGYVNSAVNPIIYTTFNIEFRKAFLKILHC
#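 Agonist mode: compounds alone added to overnight-plated D2 PathHunter cells for 90 min at 37 C, with 57 uM final dopamine (EC100) defining full response. Beta-arrestin recruitment detected by chemiluminescent reagent, read after 1 h at ambient temperature.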
# TRPML1 inh: qHTS for Inhibitors of the Human Mucolipin Transient Receptor Potential 1 (TRPML1); Mucolipin-1 (Homo sapiens), Q9GZU1; TRPML1-inducible cells, Ca2+ dye fluorescence, FDSS; active compounds read low; inhibition of EC80 agonist-evoked calcium signal; activity change, negative = inhibition, % (test concentration not listed); hit rate 0.02% among 390,000; in the data active means activity change below about -50%; inconclusive means about -30% to -50%; inactive means above about -30%;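 note: stimulus is agonist 54-4 at its EC80 concentration; % is set by controls: 0 for no effect and ±100 for the full control effect; compound concentration not given in the record; the text of the record puts the active cut at -80%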
# Target sequence (Q9GZU1 whole entry, looked up): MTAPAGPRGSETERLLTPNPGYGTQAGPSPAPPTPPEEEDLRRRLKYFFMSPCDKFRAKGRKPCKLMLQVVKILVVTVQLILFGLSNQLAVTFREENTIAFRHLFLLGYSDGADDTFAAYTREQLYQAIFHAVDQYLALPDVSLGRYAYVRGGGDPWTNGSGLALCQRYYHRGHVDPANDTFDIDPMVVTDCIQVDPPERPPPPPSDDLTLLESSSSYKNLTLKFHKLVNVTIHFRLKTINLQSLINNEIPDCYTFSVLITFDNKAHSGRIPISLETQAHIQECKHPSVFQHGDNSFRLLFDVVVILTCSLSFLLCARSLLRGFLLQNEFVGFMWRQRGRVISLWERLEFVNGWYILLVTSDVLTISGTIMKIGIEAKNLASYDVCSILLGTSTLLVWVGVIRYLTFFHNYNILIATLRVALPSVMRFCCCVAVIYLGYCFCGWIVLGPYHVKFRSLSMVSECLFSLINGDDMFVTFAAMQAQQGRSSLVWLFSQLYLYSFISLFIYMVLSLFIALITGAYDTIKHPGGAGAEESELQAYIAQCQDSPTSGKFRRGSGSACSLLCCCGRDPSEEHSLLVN
#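 TRPML1-DL cells, Tet-induced overnight (~16 h, 37 °C) at 1,500 cells/well, were loaded with Ca8 no-wash dye plus quencher for 45-90 min at room temperature. Compounds were pinned during FDSS kinetic reading; agonist 54-4 at EC80 (4 uM final) then added.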
# Six1-Eya2 blk: qHTS Assay for Inhibitors of the Six1/Eya2 Interaction; activity change, % (test concentration not listed); hit rate 0.56% among 360,000; AlphaScreen GST-Six1/His-Eya2 binding, biochemical; active compounds read low; control for the full effect not named in the record; AID 651725, 2012; in the data active = activity change below about -65%; inconclusive = about -30% to -65%; inactive = above about -30%; note: % is set by controls: 0 for no effect and ±100 for the full control effect
#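 AlphaScreen with GST-Six1 and His-Eya2 (5X mix: 250 nM and 500 nM), glutathione donor and nickel acceptor beads; buffer 50 mM Tris pH 8.0, 300 mM NaCl, 1 mM TCEP; 1 h at 37 C in the dark.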
# CtBP-E1A inh: qHTS Assay for Inhibitors of the CtBP/E1A Interaction; AlphaScreen GST-E1A/His-CtBP binding, 1536-well; active compounds read low; control for the full effect not named in the record; activity change, % (test concentration not listed); hit rate 0.49% among 340,000; AID 651724, 2012; in the data active means activity change below about -65%; inconclusive means about -30% to -65%; inactive means above about -30%; note: % is set by controls: 0 for no effect and ±100 for the full control effect
#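 Homogeneous bead-based format: GST-tagged E1A captured on glutathione donor beads, His-tagged CtBP on nickel acceptor beads; compounds precede bead addition by 2 h at 37 °C.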
# TRPML1 agonist: qHTS for Agonists of the Human Mucolipin Transient Receptor Potential 1 (TRPML1); TRPML1-expressing cells, Ca2+ dye fluorescence, FDSS; host cell line not named in the record; reference of the full effect not given here; activation, % (concentration not given with the values); hit rate 0.12% among 410,000; in the data active = activation above about 50%; inconclusive = about 30% to 50%; inactive = below about 30%; note: 0% is about no effect; the text of the record puts the active cut at 80%
#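 Tet-induced TRPML1-DL cells, 1,500 per well, cultured overnight, were loaded with a no-wash Ca2+ dye for 45–90 min. Calcium fluorescence was recorded on the FDSS for 110 s after compound addition, before the EC80 agonist (4 uM 54-4) was added.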
# Starred values were filed as active, the others as inactive; ? = inconclusive; · = no result given; & = joins results of further samples; [ ] = dose if it differs, or a comment.
SMILES,PINK1 modulator,D2 agonist,TRPML1 inh,Six1-Eya2 blk,CtBP-E1A inh,TRPML1 agonist
COc1ccc(C(=O)Oc2ccc3ccc(=O)oc3c2)cc1,4.9%,1.5,-7,-7,13,-0.5
N#Cc1ccccc1OCC(=O)OCC(=O)NC1CCCCC1,1.0%,1.6,27,5,2,1.0
O=C(Cn1cnc2c(cnn2-c2ccc(F)cc2)c1=O)NCCc1ccccc1,-1.0%,1.9,5,11,0,0.2
CC(C)=NN/C(N)=N/C(=S)Nc1ccc(C)cc1,5.4%,-2.7,34,1,-2,-0.6
N#Cc1ccccc1Cn1c(=O)n(Cc2ccc(C(=O)NCc3ccco3)cc2)c(=O)c2ccccc21,?,-1.8,39,-1,3,4.1
COc1ccc(/C=N/NC(=O)c2cc3cc(OC)c(OC)cc3[nH]2)cc1,0.5%,?,5,-11,-15,1.7
CN(C)S(=O)(=O)c1cccc(C(=O)Nc2n[nH]c(C(F)(F)F)n2)c1,1.9%,-5.0,-20,13,-7,-0.1
CC1=CC(C)C(C[N+]2(C)CCCCC2)C(C)C1 (stereo not given),-1.7%,-3.7,-9,7,6,4.3
CCCC(=O)NC1=C(C#N)C2(CCCCC2)Cc2ccccc21,-1.7%,-2.1,-15,15,-6,3.2
CNC(=S)NNC(=O)Cn1ccc(C)n1,4.5%[38.3 µM],-0.5,13,1,8,-0.1
N/C(=N\OC(=O)c1ccccc1Br)c1ccc([N+](=O)[O-])cc1,0.7%,7.5,15,-9,-3,-0.5
COc1ccc(OC)c(NC(=O)c2cc(OC(C)=O)cc(C(=O)Nc3cc(OC)ccc3OC)c2)c1,2.7%,7.9,·,0,·,·
CCOc1ccc(C(=O)COC(=O)c2cc([N+](=O)[O-])ccc2N2CCOCC2)cc1,5.4%,-1.3,3,-19,-12,1.2
FC(F)(F)c1cnc(NNC(=S)Nc2ccc(Cl)cc2)c(Cl)c1,11µM*,-13,5,-24,-17,-0.6
CCN(CCCNC(=O)c1cc2c(=O)n(C)c3ccccc3c2s1)Cc1ccccc1,2.9%,·,5,·,·,-0.9
Cc1cc(Sc2ncnc(N)c2[N+](=O)[O-])ncn1,4.5%,-9.9,12,-27,-12,-1.1
Cc1ccc2oc(-c3ccc(NC(=O)c4cccnc4)cc3)nc2c1,0.7%,2.2,?,17,0,0.5
Cc1cc(=O)n2[nH]c(-c3ccsc3-n3c(C)ccc3C)cc2n1,5.0%,0.2,·,-22,-17,·
Cc1cccc2c1CC(C)(C)N=C2C1=C(O)CC(C)(C)CC1=O,5.2%,-0.9,8,6,11,-0.8
CCC(C)NC(=O)C1c2cc(OC)c(OC)cc2C(=O)N(C)C1c1cccs1 (stereo not given),-2.4%,-2.8,-8,2,5,-0.1
O=C1Nc2ccccc2Oc2cc([N+](=O)[O-])cc(Oc3ccccc3)c21,15%,-3.2,12,-13,0,4.3
COc1ccccc1Nc1ccc2c(O)cc(S(=O)(=O)O)cc2c1,1.5%,2.1,-2,-79*,-88*,2.6
COCCN(C(=O)CN1CCN(S(=O)(=O)c2ccc(F)cc2)CC1)c1c(N)n(Cc2ccccc2)c(=O)[nH]c1=O,0.9%,-0.6,-7,3,-2,-0.5
O=C(O)CNC(=O)c1ccc(NC(=O)/C(=C/c2ccccc2)NC(=O)c2ccccc2Br)cc1,1.2%,-3.4,-17,2,·,1.3
CCOC(=O)C(CC)/C(C)=N/NC(=O)c1ccc([N+](=O)[O-])cc1 (stereo not given),-4.7%[38.3 µM],2.5,11,1,-4,0.6
CCC(C)c1ccc(OCc2ccc(C(=O)OC)o2)cc1 (stereo not given),3.3%,-4.6,-5,31,26,4.4
CC(C)c1ccc(S(=O)(=O)N2CCN(C(=O)C3=COCCO3)CC2)cc1,-1.2%,-2.9,-1,1,5,0.5
CCN(CC)CCN1C(=O)C(O)=C(C(C)=O)C1c1ccccc1[N+](=O)[O-] (stereo not given),3.0%,1.2,-13,6,2,-0.4
COC(=O)c1cn(NC(=O)c2cccc(F)c2)c(=O)c2ccccc12,-1.8%,-3.7,26,2,2,-0.5
CCOc1ccccc1N(C(=O)Cn1nnnc1-c1ccc(C)o1)C(CC)C(=O)NC(C)(C)C (stereo not given),-4.2%,-1.3,12,-6,-12,4.5

# As a short view, eleven of the compounds above:
SMILES,PINK1 modulator,D2 agonist,TRPML1 inh,Six1-Eya2 blk,CtBP-E1A inh,TRPML1 agonist
CCC(C)NC(=O)C1c2cc(OC)c(OC)cc2C(=O)N(C)C1c1cccs1 (stereo not given),-2.4%,-2.8,-8,2,5,-0.1
O=C1Nc2ccccc2Oc2cc([N+](=O)[O-])cc(Oc3ccccc3)c21,15%,-3.2,12,-13,0,4.3
COc1ccccc1Nc1ccc2c(O)cc(S(=O)(=O)O)cc2c1,1.5%,2.1,-2,-79*,-88*,2.6
COCCN(C(=O)CN1CCN(S(=O)(=O)c2ccc(F)cc2)CC1)c1c(N)n(Cc2ccccc2)c(=O)[nH]c1=O,0.9%,-0.6,-7,3,-2,-0.5
O=C(O)CNC(=O)c1ccc(NC(=O)/C(=C/c2ccccc2)NC(=O)c2ccccc2Br)cc1,1.2%,-3.4,-17,2,·,1.3
CCOC(=O)C(CC)/C(C)=N/NC(=O)c1ccc([N+](=O)[O-])cc1 (stereo not given),-4.7%[38.3 µM],2.5,11,1,-4,0.6
CCC(C)c1ccc(OCc2ccc(C(=O)OC)o2)cc1 (stereo not given),3.3%,-4.6,-5,31,26,4.4
CC(C)c1ccc(S(=O)(=O)N2CCN(C(=O)C3=COCCO3)CC2)cc1,-1.2%,-2.9,-1,1,5,0.5
CCN(CC)CCN1C(=O)C(O)=C(C(C)=O)C1c1ccccc1[N+](=O)[O-] (stereo not given),3.0%,1.2,-13,6,2,-0.4
COC(=O)c1cn(NC(=O)c2cccc(F)c2)c(=O)c2ccccc12,-1.8%,-3.7,26,2,2,-0.5
CCOc1ccccc1N(C(=O)Cn1nnnc1-c1ccc(C)o1)C(CC)C(=O)NC(C)(C)C (stereo not given),-4.2%,-1.3,12,-6,-12,4.5

# New compounds follow
SMILES,PINK1 modulator,D2 agonist,TRPML1 inh,Six1-Eya2 blk,CtBP-E1A inh,TRPML1 agonist
O=C(COc1ccccc1Cl)Nc1ccc2c(c1)OCCO2,0.5%,-0.3,-4,8,11,-1.6
Cc1nc2nc[nH]n2c(=O)c1NC(=O)CCc1ccccc1,1.2%,-15,4,-1,-2,0.8
CN1C(=O)[C@H]2[C@@H](/C=C/c3ccccc3)N3C(=O)CN(CCO)C(=O)[C@@]3(Cc3ccccc3)[C@H]2C1=O,-0.4%,-2.4,-4,4,7,-0.8
CCOC(=O)C1C(=O)C=C(c2ccc(NS(C)(=O)=O)cc2)CC1c1ccco1 (stereo not given),·,2.2,1,0,-2,1.2
CCn1c(=O)c2cc(C(=O)NCCc3ccc(Cl)cc3)sc2c2ccccc21,1.4%,·,1,·,·,-0.8
COc1ccc(C(=O)N2CC(=O)Nc3ccc(C)cc3C2c2ccccc2)cc1 (stereo not given),6.1%,-3.4,7,-3,4,0.5
O=[N+]([O-])c1ccc(/C=N\N2CCN(c3ccc(Cl)cc3)CC2)cc1,6.0%,-2.8,-22,-2,-1,-0.8
COCCN1C(=O)C(CC(=O)Nc2ccc(C(=O)O)cc2)SC1=Nc1ccccc1 (stereo not given),0.6%,0.6,-2,2,0,-0.9
CSc1ccccc1C(=O)NCc1ccccc1,-0.3%,-4.6,1,-5,0,-1.0
O=C(COc1ccc(/C=N/NC(=O)c2ccc(O)cc2)cc1)Nc1cccc([N+](=O)[O-])c1,15%,9.9,7,0,·,0.7
CN(Cc1ccccc1)C(=O)COc1ccccc1,-1.0%,-1.7,-4,10,4,-0.3
Cc1ccccc1Cn1c(=O)c2c(nc3n2CCCN3Cc2ccccc2)n(C)c1=O,2.0%,0.9,-1,-29,-14,16
C=CCn1c(C(C)NC(=O)CCC)nc2ccccc21 (stereo not given),·,0.8,7,4,0,0.3
COc1ccc(OCC(=O)Nc2cc(NC(=O)c3ccco3)ccc2OC)cc1,0.4%,2.3,3,-2,-13,0.8
O=C(CSc1n[nH]c(-c2ccncc2)n1)Nc1ccccn1,0.8%,0.8,-1,13,0,0.5
O=C1CCC(C(=O)NCCN2C(=O)S/C(=C\c3cccnc3)C2=O)=NN1,0.1%,-1.9,2,-19,4,-1.2
CC(NC(=O)c1ccc2c(c1)OCCO2)c1ccc(S(N)(=O)=O)cc1 (stereo not given),-1.7%,-2.3,-10,17,0,0.0
Cc1cc2c(cc1S(=O)(=O)N1CCc3ccccc31)NC(=O)CO2,0.6%,-2.9,2,-2,-1,5.1
COc1ccc(-n2nc(C(=O)NCc3ccco3)c3c4ccccc4n(C)c3c2=O)cc1Cl,13%,-2.1,7,-1,6,-0.3
CC(=O)Nc1cccc(-c2ccnc3c2CC(C(=O)Nc2ccc(Cl)cc2)O3)c1 (stereo not given),8.1%,2.0,-18,-7,0,1.3
CCCc1nn2c(=O)c(C(c3cccc(Cl)c3)c3c(O)nc4sc(CCC)nn4c3=O)c(O)nc2s1,-0.2%,-0.4,13,?,-30,-0.5
Cc1ccccc1NC(=O)/C(=C/c1ccco1)c1ccccc1,-0.4%,-1.2,-15,-6,0,0.3
Nc1c(C(=O)OCC(=O)Nc2ccccc2Br)[nH]c(=O)[nH]c1=O,-3.1%,-3.5,-15,0,-2,0.6
Cc1cc(C)c(NC(=O)COC(=O)COc2ccc3c(C)cc(=O)oc3c2)c(Cl)c1,-0.5%,-5.0,11,-3,7,0.6
COc1ccc(S(=O)(=O)NC2(C(F)(F)F)NC(=O)N(CCc3ccccc3)C2=O)cc1 (stereo not given),1.3%&1.9%,-0.4,-3&9,-8,-10,0.2&0.6
O=[N+]([O-])c1ccc(-n2cc(-c3ccccc3)nn2)cc1,0.6%,4.9,-6,-3,-4,2.6
O=C(CSc1nc2ccccc2[nH]1)NCC1CCCO1 (stereo not given),0.1%,-1.5,-2,12,-5,1.9
CCOc1ccccc1N1CCN(C(=O)c2ccncc2)CC1,·,-3.5,-3,4,7,0.8
Cc1ccccc1-n1nc2c(c1NC(=O)CCCl)CSC2,1.3%,5.8,-10,4,·,-0.6
CCc1nc2ccc(C(=O)N(C)CCCN(C)C)cn2c1N(C)Cc1cc2ccccc2s1,0.8%,-6.4,13,-10,-4,0.0
O=C(NNC(=O)C1CCN(c2ncccn2)CC1)c1ccc(Cl)cc1,-1.7%,-0.5,31,6,·,0.2
COc1ccc2c(CNCc3ccco3)c(C(=O)O)n(Cc3ccccc3)c2c1,-0.1%,·,34,·,·,1.4
Cc1ccc(-n2ncc3c2CC(C)(C)CC3NC(=O)C2CCOCC2)cc1 (stereo not given),0.4%,-1.6,3,5,9,-0.4
COc1cc2c(cc1OC)C(COc1ccccc1OC)N(C(=O)C(C)(C)C)CC2 (stereo not given),2.0%,-7.0,-2,17,0,1.8
